VDR inhibitor – Inhibitors of the vitamin D receptor (VDR): qHTS; AID 504847, 2011; Potency, µM, inactives show max response, negative = inhibition, hits mostly inhibitors; Vitamin D3 receptor (Homo sapiens), P11473; VDR-SRC2-3 peptide fluorescence polarization, 2 h; actives 0.93% (n = 400,000); active = well fitted inhibition curve with a large enough effect; inconclusive = small, poorly fitted or top-dose-only effect, or another doubt; inactive = no such curve, though single readings can be large or run the other way; also: series mostly up to about 120 µM
Target sequence (P11473 whole entry, looked up): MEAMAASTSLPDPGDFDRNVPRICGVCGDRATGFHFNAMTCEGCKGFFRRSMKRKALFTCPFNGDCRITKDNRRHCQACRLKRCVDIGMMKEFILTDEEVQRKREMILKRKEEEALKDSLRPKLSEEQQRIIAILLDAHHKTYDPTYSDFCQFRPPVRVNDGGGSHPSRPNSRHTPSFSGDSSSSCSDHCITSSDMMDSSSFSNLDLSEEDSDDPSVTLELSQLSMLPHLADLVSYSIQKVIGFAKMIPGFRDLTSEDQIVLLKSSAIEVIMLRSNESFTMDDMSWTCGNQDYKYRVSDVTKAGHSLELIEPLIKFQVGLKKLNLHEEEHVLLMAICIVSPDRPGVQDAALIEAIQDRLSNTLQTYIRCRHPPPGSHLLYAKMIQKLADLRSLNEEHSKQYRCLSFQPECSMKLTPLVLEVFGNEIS
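Fluorescence polarization assay of small-molecule disruption of VDR binding to coregulator peptide SRC2-3. Compounds and controls pin-transferred, then read after 2 h incubation at ambient room temperature.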
Starred values were filed as active, the others as inactive; ? = inconclusive; & = joins results of further samples; ! = not confirmed by another sample. % is scaled to controls: 0 for no effect and ±100 for the full control effect; potency is read from the fitted curve at half-maximal effect. This is a subset; rates above refer to the full screens.

SMILES | VDR inhibitor
CSc1ccc(CCNC(=O)CCc2c(C)nc3c(c(C)nn3-c3ccccc3)c2C)cc1 | 18%
O=C(O)C1Cc2ccccc2-c2ccccc2C1 | -19%
COc1ccc2[nH]c3c(c2c1)CCN1C(=O)C(CC(=O)NCCCn2ccnc2)C[C@H](C(=O)N(C(C)C)C(C)C)[C@@]31C (stereo not given in full) | -10%
COc1cccc(OC)c1OCCCCN1CCC(Cc2ccccc2)CC1 | 13%
Fc1ccc(Nc2nc(SCc3ccccc3F)nc3ccccc23)cc1 | 10%
Cc1nc2sccn2c(=O)c1S(=O)(=O)NCc1ccccc1Cl | -3%
Cc1nc2ccccn2c1P(=O)(N1CCCCC1)N1CCCCC1 | 6%
O=C(Nc1nnc(CCc2ccccc2)s1)c1ccccc1 | -8%
O=C(CSc1nc2cc([N+](=O)[O-])ccc2n1-c1ccc(F)cc1)NC1CCS(=O)(=O)C1 (stereo not given) | 1%
Cc1cc(C(=O)COC(=O)c2ccc[nH]c2=O)c(C)n1C | -3%
O=C(c1cc(-c2ccc(F)cc2)on1)N1CCN(c2ccc(F)cc2)CC1 | 71µM*!
COc1cccc(NC(=O)COC(=O)c2c(F)cccc2Cl)c1 | -20%
CNC(=O)c1ccsc1NC(=O)CS(=O)(=O)c1ccc(Cl)cc1 | 0%
CN1C(=O)c2ccccc2Sc2ccc(NC(=O)COc3ccc(F)cc3)cc21 | 9%
CC1CCCC(C)N1S(=O)(=O)c1ccc(S(=O)(=O)N2CCOCC2)cc1 (stereo not given) | -12%
CCOc1ccccc1NC(=O)C1CCC(CNS(=O)(=O)c2ccc3c(c2)CCCC(=O)N3)CC1 (stereo not given) | 3%
COc1ccc(OC)c(C2C(C(=O)O)c3ccccc3C(=O)N2C)c1 (stereo not given) | -3%
COc1cccc(NC(=O)N2CCC(NC(=O)C3CCCCC3)CC2)c1 | -5%
CCOc1ccccc1N(CC(=O)Nc1ccc(OC)c(Cl)c1)S(=O)(=O)c1ccccc1 | -5%
COc1ccc(-c2noc(CCC(=O)N3CCN(c4cccc(C)c4C)CC3)n2)cc1 | -13%

Fetched one by one from the list above:
SMILES | VDR inhibitor
CN1C(=O)c2ccccc2Sc2ccc(NC(=O)COc3ccc(F)cc3)cc21 | 9%
O=C(c1cc(-c2ccc(F)cc2)on1)N1CCN(c2ccc(F)cc2)CC1 | 71µM*!
COc1ccc2[nH]c3c(c2c1)CCN1C(=O)C(CC(=O)NCCCn2ccnc2)C[C@H](C(=O)N(C(C)C)C(C)C)[C@@]31C (stereo not given in full) | -10%
COc1ccc(-c2noc(CCC(=O)N3CCN(c4cccc(C)c4C)CC3)n2)cc1 | -13%

Continuation:
SMILES | VDR inhibitor
Cc1ccc(C)c(N2CCN(C(=O)C3CCC(CNS(=O)(=O)c4cccs4)CC3)CC2)c1 (stereo not given) | -8%
COc1ccc(NC(=O)c2ccc(OCc3c(C)noc3C)c(OC)c2)cn1 | 13%
O=C(Nc1ccccc1Cl)Nc1cccc2cccnc12 | -8%
Cc1nn(CCCC(=O)NCc2ccc(F)cc2)c(C)c1[N+](=O)[O-] | 9%
CCC1(c2ccccc2)NC(=O)N(CC(=O)Nc2cc(S(=O)(=O)N3CCOCC3)ccc2OC(C)C)C1=O (stereo not given) | -4%
CC(CC(=O)N1CCN(S(=O)(=O)c2ccccc2)CC1)n1cncn1 (stereo not given) | -2%
Cc1cc(OCC(O)CN2CCOCC2)cc(C)c1Cl (stereo not given) | -2%
COCCNC(=O)NC(=O)COC(=O)c1cccn1C | -10%
COc1cc(NC(=O)Cc2ccc(OC)c(S(=O)(=O)N3CCOCC3)c2)c(OC)cc1Cl | -9%
O=C(c1cc(S(=O)(=O)N2CCCC2)c(Cl)cc1Cl)N1CCCC1 | -2%
O=C(N/N=C/c1ccc(OC(=O)c2ccco2)cc1)c1ccncc1 | -10%
CCOc1ccc(CCNC(=O)Cn2nc(C)c3c(C)n(-c4ccccc4)nc3c2=O)cc1OCC | -2%&2%
COc1ccc(NC(=O)C2CCC(CNS(=O)(=O)c3csc(C(N)=O)c3)CC2)cc1 (stereo not given) | 9%
CCC(C)C(NC(=O)OC(C)(C)C)C(=O)NC(C)C(N)=O (stereo not given) | -4%
CC1C/C(=C\c2cccnc2)C(=O)/C(=C/c2cccnc2)C1 (stereo not given) | 35µM*
O=C1C2C3C=CC(C4CC34)C2C(=O)N1/N=C/c1cccs1 (stereo not given) | 2%
COc1ncc2nc(-c3ccc(F)cc3)c(=O)n(C[C@H]3CCCO3)c2n1 | -12%
CCOC(=O)C1=C(N)OC2=C(C(=O)CC(C)(C)C2)C1c1cccnc1 (stereo not given) | -7%
CCNc1ccc(S(N)(=O)=O)cc1[N+](=O)[O-] | -6%
CC(=O)N(C)c1ccc(NC(=O)Nc2ccc(Cl)cc2)cc1 | ?
Cn1c(=O)c(-c2ccccc2N)nc2ccccc21 | 17%
O=C(c1ccccc1)N1CCN(c2ccc(Cl)cc2)CC1 | -1%
COc1ccc(OC)c(Nc2nc(NCc3ccco3)nc(N)c2[N+](=O)[O-])c1 | -1%
CN(CCCNC(=O)Cn1c(=O)c2cccn2c2ccccc21)Cc1ccccc1 | -6%
Cc1ccccc1C(=O)Nc1nnc(S(=O)(=O)N(C)Cc2ccccc2)s1 | 2%
CC(=O)c1c(C)[nH]c(C(=O)OCC(=O)Nc2cc(C)on2)c1C | 10%
CSc1sc(C(=O)N2CCCCC2)c(-c2cccs2)c1C#N | -8%
COc1ccc(Br)cc1S(=O)(=O)N1CCCC1 | -9%
Cc1ccc(NC(=O)N2CCCc3ccccc32)cc1C | -16%
CC(C)CCNC(=O)c1cc2c(s1)-c1ccccc1S(=O)(=O)C2 | 13%
O=C(C1CCCO1)N1CCN(c2ccccn2)CC1 (stereo not given) | 11%
COc1ccc(CNC(=O)CCNS(=O)(=O)c2cc(Br)cnc2N)cc1 | ?
COc1ccccc1N(CC1CO1)S(=O)(=O)c1ccc(C)cc1 (stereo not given) | 10%
CCOc1ccc(-c2ccc(SCC(=O)Nc3nnc(CC)s3)nn2)cc1 | -10%
CCCCC(=O)NN(C)c1nc(-c2ccccc2)nnc1C(F)(F)F | -7%
COC(=O)C1=[N+]([O-])OC(C(=O)OC)C1c1c[nH]c2ccccc12 (stereo not given) | -8%
Cc1c(Cl)cccc1NC(=S)NCc1ccc(Cl)cc1 | 11%
COc1ccccc1C(=O)Nc1ccnn1C1CCN(Cc2ncc[nH]2)CC1 | -4%
CCOC(=O)CN1C(=O)/C(=C/c2ccc(Cl)cc2)Oc2ccccc21 | 10%
O=C(CNS(=O)(=O)c1cccs1)N1CCN(c2ccccn2)CC1 | 11%
CC(=O)n1nc(-c2ccco2)nc1N | -6%
COC(=O)c1ccc2nc(C)c(C)nc2c1 | 6%
CC(=O)c1ccc(NC(=O)CCNC(=O)c2ccccc2Cl)cc1 | 6%
CCn1c2ccccc2c2nnc(SCC(=O)N3CC(C)OC(C)C3)nc21 (stereo not given) | 3%
O=C(O/N=C1/CCSc2ccccc21)c1ccccc1 | -1%
Cc1ccc(CN2CCN(Cc3cccn3-c3ccc(Cl)cn3)CC2CCO)o1 (stereo not given) | -2%
Cc1c(Cl)cccc1N(CC(=O)NC1CCCCC1)S(C)(=O)=O | -11%
O=C(Nc1ccc2nc(SCC(=O)N3CCCC3)sc2c1)c1ccc(Br)cc1 | -3%
O=C(NCCO)/C(=C/c1cccc([N+](=O)[O-])c1)NC(=O)c1ccco1 | -14%
O=C(COC(=O)c1ccc2c(c1)OCO2)NCc1ccc(Cl)cc1 | -2%
O=C(NCCc1ccc(O)c(O)c1)C1COc2ccccc2O1 (stereo not given) | -2%
CCc1nc(SCc2ccc(F)cc2)[nH]c(=O)c1C#N | -4%
C[C@]12c3[nH]c4ccccc4c3CCN1C(=O)C(CC(=O)NCCN1CCOCC1)C[C@@H]2C(=O)N1CCCCC1 (stereo not given in full) | ?
Cc1cc(NC(=O)CCC(=O)N(Cc2ccco2)C2(C(=O)NC3CCCCC3)CCN(C)CC2)no1 | -8%
COc1ccc(CNS(=O)(=O)c2ccc(C(=O)N(C)C)s2)cc1 | 17%
Cc1nn(CC(=O)NC2CCCCC2)c(=O)c2cc3cc(F)ccc3n12 | 15%
O=C(CSc1n[nH]c(=O)n1-c1ccccc1)Nc1ccccc1C(F)(F)F | -26%
COc1cccc(CC2(CO)CCN(CC3=CC[C@H]4C[C@@H]3C4(C)C)CC2)c1 | -8%
O=C(NNC(=O)C12CC3CC(CC(C3)C1)C2)[C@@H]1C[C@H]1c1ccccc1 | 17%
Cc1cccn2c(=O)c3cc(C#N)c(=N)n(Cc4cccnc4)c3nc12 | -16%

As a working copy, some entries already given:
SMILES | VDR inhibitor
CC(C)CCNC(=O)c1cc2c(s1)-c1ccccc1S(=O)(=O)C2 | 13%
O=C(C1CCCO1)N1CCN(c2ccccn2)CC1 (stereo not given) | 11%

Returning to the listing, repeating the seven entries before the break.
SMILES | VDR inhibitor
Cc1cc(NC(=O)CCC(=O)N(Cc2ccco2)C2(C(=O)NC3CCCCC3)CCN(C)CC2)no1 | -8%
COc1ccc(CNS(=O)(=O)c2ccc(C(=O)N(C)C)s2)cc1 | 17%
Cc1nn(CC(=O)NC2CCCCC2)c(=O)c2cc3cc(F)ccc3n12 | 15%
O=C(CSc1n[nH]c(=O)n1-c1ccccc1)Nc1ccccc1C(F)(F)F | -26%
COc1cccc(CC2(CO)CCN(CC3=CC[C@H]4C[C@@H]3C4(C)C)CC2)c1 | -8%
O=C(NNC(=O)C12CC3CC(CC(C3)C1)C2)[C@@H]1C[C@H]1c1ccccc1 | 17%
Cc1cccn2c(=O)c3cc(C#N)c(=N)n(Cc4cccnc4)c3nc12 | -16%
COc1cc([C@H]2c3[nH]c4ccccc4c3C[C@H]3C(=O)N4[C@@H](c5cc(OC)c(OC)c(OC)c5)c5[nH]c6ccccc6c5C[C@H]4C(=O)N23)cc(OC)c1OC | -2%
CCS(=O)(=O)c1ccc2oc(Nc3ccccc3C)nc2c1 | 2%
Cc1c(C)c2c(cc(C)c3c(-c4ccccc4)coc32)oc1=O | 13%
COc1cc(OC)c(OC)cc1CNCCSc1nnnn1C | -8%
CSc1ccc(CN2CCCC(CNC(=O)c3ccc(F)cc3)C2)cc1 (stereo not given) | -5%
CSc1cccc(NC(=O)CN(c2cc(C)ccc2C)S(C)(=O)=O)c1 | 3%
Cc1cccc(-n2c(Cc3cc(=O)[nH]c(=O)[nH]3)nnc2SCC(=O)NCC2CCCO2)c1 (stereo not given) | 3%
Cc1cc(C)c(C2=CSC3=NS(=O)(=O)CCN23)c(C)c1 | 13%
Cc1ccc(S(=O)(=O)NN2C(=O)c3ccccc3NC2c2ccccn2)cc1 (stereo not given) | 23%
CCOc1ccccc1NC(=O)CSc1nnc2c(CC)c(C)nc(N)n12 | -4%
CCCc1ccc2oc(C(=O)N(C)Cc3cnccn3)c(C)c2c1 | 5%
Clc1nc(-c2ccccc2)c2ccccc2n1 | 4%
CCN(CC)CCC(c1ccc(N(C)C)cc1)c1c(OC)cc(OC)c2c(-c3ccccc3)cc(=O)oc12 (stereo not given) | 1%&10%
CC(=O)c1cccc(NC(=O)Nc2nc(C)cc(C)n2)c1 | -2%
COc1cccc(-c2sc3ccc(OC)cc3c2C#CCC(C)O)c1 (stereo not given) | -19%
COc1ccccc1NS(=O)(=O)c1ccc(C(=O)NCC(c2ccccc2OC)N(C)C)cc1 (stereo not given) | 12%
Cc1ccccc1-c1cc(NCc2cccnc2)ncn1 | -28%
COc1ccc(OC)c(NC(=O)c2cccnc2Sc2cc(C)ccc2C)c1 | -3%
Clc1ccc(Nc2nc(NCc3ccco3)nc3nccnc23)cc1 | 7%
C=CCNC(=O)c1ccccc1NC(=O)c1ccccc1N(C)S(C)(=O)=O | 8%

Reprinted from the part before: 3 compounds, then new ones.
SMILES | VDR inhibitor
COc1ccc(OC)c(NC(=O)c2cccnc2Sc2cc(C)ccc2C)c1 | -3%
Clc1ccc(Nc2nc(NCc3ccco3)nc3nccnc23)cc1 | 7%
C=CCNC(=O)c1ccccc1NC(=O)c1ccccc1N(C)S(C)(=O)=O | 8%
COc1ccc(NC(=O)CN2CCC(NC(=O)C3CCCCC3)CC2)cc1 | -4%
Cc1ccc(CNC(=O)c2c(-c3cccc(Br)c3)noc2C)o1 | 3%
Cc1cccc(N(Cc2ccccc2)C(=O)c2ccccc2F)c1 | 8%
CC1CCN(C(=O)COC(=O)Cc2c[nH]c3ccccc23)CC1 | 1%
COc1ccc(C(=O)COC(=O)c2cc(=O)[nH]c3ccccc23)c(OC)c1 | 7%
COc1ccc(OC)c(/C=C/C(=O)OCC(=O)N2CCCCC2)c1 | 16%
CCc1ccc(C(=O)NC2=NC(c3cc(OC)ccc3OC)CC(=O)N2)cc1 (stereo not given) | -16%
CC(C)NC(=O)Nc1cccc2c1O[C@H](CN(C)S(=O)(=O)c1cccs1)[C@@H](C)CN([C@H](C)CO)C2=O | -22%
CC(Oc1ccccc1Cl)C(=O)N(Cc1ccco1)C1CCS(=O)(=O)C1 (stereo not given) | 1%
Cc1nn(C)c(C(=O)N/N=C/c2cc3c(cc2Br)OCO3)c1Br | 3%
COC(=O)c1sccc1NC(=O)CC1C(=O)NCCN1C(=O)c1ccc(F)cc1 (stereo not given) | -8%
O=C(Nc1cccc(Cl)c1)OCCN1CCN(Cc2ccccc2)CCC1=O | -12%&-12%
Cc1ccc(NC(=O)CSc2nnc(-c3cccnc3)s2)cc1 | 1%
CC(=O)c1c(C)[nH]c(C(=O)CSc2nnc(-c3ccco3)o2)c1C | 17%
CCOC(=O)c1c(N/C=C(\C#N)c2nc(-c3ccc(OC(C)=O)cc3)cs2)sc2c1CCC2 | -6%
COCCN(C(=O)COC(=O)c1ccccc1NCc1ccco1)c1c(N)n(Cc2ccccc2)c(=O)[nH]c1=O | 0%
O=C(NCCNC(=O)c1cc(F)cc(F)c1)c1cc(F)cc(F)c1 | 2%
Cc1noc(/C=C/c2ccco2)c1S(=O)(=O)N1CCC(C(=O)Nc2ccc(F)cc2F)CC1 | 4%
COCCCNC(=S)NNC(=S)Nc1cccc(Cl)c1 | ?

Screens: PubChem BioAssay, National Center for Advancing Translational Sciences (NCATS)
